# VDR inhibitor – vitamin D3 receptor (human) inhibition | VDR-SRC2-3 peptide fluorescence polarization, 2 h | Potency, µM, for inactives: max response, negative = inhibition, usual class: inhibitors | 400,000 compounds, 0.93% hits; active means well fitted inhibition curve with a large enough effect; inconclusive means small, poorly fitted or top-dose-only effect, or another doubt; inactive means no such curve, though single readings can be large or run the other way; further: series mostly up to about 120 µM
# Target sequence (P11473 whole entry, looked up): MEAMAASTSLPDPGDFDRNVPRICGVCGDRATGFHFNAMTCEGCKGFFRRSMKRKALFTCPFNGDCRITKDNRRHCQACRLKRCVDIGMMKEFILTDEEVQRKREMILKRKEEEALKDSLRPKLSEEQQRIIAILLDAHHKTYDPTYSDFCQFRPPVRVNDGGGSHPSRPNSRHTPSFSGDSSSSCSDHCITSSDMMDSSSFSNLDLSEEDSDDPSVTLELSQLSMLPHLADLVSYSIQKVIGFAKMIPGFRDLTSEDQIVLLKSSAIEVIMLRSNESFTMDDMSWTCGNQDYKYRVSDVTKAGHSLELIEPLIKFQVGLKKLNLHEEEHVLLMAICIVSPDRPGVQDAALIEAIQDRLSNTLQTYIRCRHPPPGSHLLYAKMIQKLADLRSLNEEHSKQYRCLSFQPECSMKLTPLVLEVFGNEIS
#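 Inhibition of the VDR/SRC2-3 peptide interaction is quantified by fluorescence polarization. Compounds (23 nl, pintool) incubate with the reagents for 2 hours at ambient room temperature.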
# * = called active by the depositor; ? = inconclusive; & = joins results of further samples. On the % scale 0 is the no-effect control and ±100 the full control effect; potency means the concentration at half of the fitted maximal effect. A portion of the library; rates above refer to the full screens.
VDR inhibitor	mol
-3%&-3%	COc1ccc(C2CC(=O)Oc3c2c(=O)n(C)c2ccccc32)c(OC)c1OC (stereo unspecified)
6%	Cc1[nH]c2ccccc2c1/C=N/NC(=S)NCc1ccccc1
1%	Cc1ccc(/C=C/C(=O)N2CCN(S(=O)(=O)c3cccs3)CC2)o1
-15%	Cc1nn(-c2ccccc2)c(Cl)c1/C=N/NC(=O)c1ccc(CNc2ccccc2)o1
3%	Cc1ccccc1CSc1nc(-c2ccccc2)nc2c1Cc1c(CO)cnc(C)c1O2
10%	Cc1nnc(SCC(=O)Nc2ccccc2N2CCOCC2)s1
26%	CCSC(=O)N(CC)CC(=O)Nc1c(CC)cccc1CC
14%	COC(=O)[C@H](Cc1ccccc1)NC(=O)Nc1ccc(S(N)(=O)=O)cc1
5%	CCC(=O)N1CCc2cc(S(=O)(=O)N3CCN(c4cc(Cl)ccc4C)CC3)ccc21
-5%	CC(=O)Nc1ccc(S(=O)(=O)NC2(C(F)(F)F)N=C(c3ccccc3)NC2=O)cc1 (stereo unspecified)
-1%	CN(CC(=O)Nc1ccc(F)c(F)c1F)C(=O)c1ccc2c(c1)NC(=O)CS2
6%	COc1cccc(C(=O)OCC(=O)N2CCc3ccccc32)c1OC
-3%	O=C(NCCOc1ccccc1)c1cccc2c1C(=O)c1ccc(Cl)cc1S2(=O)=O
-8%	O=C(CCSCCc1ccccn1)Nc1ccc(Cl)cc1
-7%	CCN(C(=O)COc1ccc(C(C)=O)cc1)c1cccc2ccccc12
?	C=C1C(=O)O[C@@H]2[C@H]1[C@@H](OC(=O)/C(C)=C/C)C/C(C)=C\C(=O)/C=C(\C)[C@@H]2O
7%	Cc1ccc(S(=O)(=O)N(CC(=O)NCC2CCCO2)Cc2ccc(F)cc2)cc1 (stereo unspecified)
-17%	Cc1ccccc1OCC(=O)NCC(=O)OCC(=O)c1ccc(F)cc1
11%	CCOc1ccc(S(=O)(=O)N2CCCC(C(=O)Nc3ccccc3)C2)cc1 (stereo unspecified)
-13%	COC(=O)c1ccsc1NC(=O)C1=COCCO1

# Exported with bars between the fields: entries from further up.
Structure | VDR inhibitor
O=C(NCCOc1ccccc1)c1cccc2c1C(=O)c1ccc(Cl)cc1S2(=O)=O | -3%
CCSC(=O)N(CC)CC(=O)Nc1c(CC)cccc1CC | 26%
COC(=O)[C@H](Cc1ccccc1)NC(=O)Nc1ccc(S(N)(=O)=O)cc1 | 14%
COc1ccc(C2CC(=O)Oc3c2c(=O)n(C)c2ccccc32)c(OC)c1OC (stereo unspecified) | -3%&-3%
CCN(C(=O)COc1ccc(C(C)=O)cc1)c1cccc2ccccc12 | -7%

# New compounds follow.
VDR inhibitor	mol
2%	O=C(CCl)N1CCN(S(=O)(=O)c2ccc3c(c2)OCCCO3)CC1
-12%	O=C(NC1CCCCCC1)C1CCC(=O)N(Cc2ccccc2F)C1 (stereo unspecified)
-13%	Cc1ccc(CCN2CC(C(=O)NCCN(C)C)CC2=O)cc1 (stereo unspecified)
-6%	CC(C)NC(=O)c1cnc(N2CCN(c3ccccn3)CC2)c2ccccc12
-8%	CCOC(=O)c1csc(-n2nc(C)cc2C(F)(F)F)n1
-14%	O=C(C[n+]1ccccc1)N1CCCc2ccccc21
-17%	S=C(Nc1ccc(Cl)c(Cl)c1)NC1CCN(Cc2ccccc2)CC1
5%	CC(CNc1ccc(Cl)cc1)(CNc1ccc(Cl)cc1)[N+](=O)[O-]
-16%	CC1(C)CC(CCNS(=O)(=O)c2ccccc2)(c2ccccc2)CCO1 (stereo unspecified)
6%	COc1ccc(Cn2c(C(=O)O)c(CNCc3ccc(SC)cc3)c3ccc(OC)cc32)cc1
-10%	O=C(NC1C(=O)NNC1c1ccccc1)c1ccc(F)cc1 (stereo unspecified)
1%	CCN(c1ncnc2c1c(-c1ccccc1)cn2-c1ccccc1)C1CCCCC1
-11%	CCOC(=O)c1c(C)[nH]c(C(=O)COC(=O)C2=NNC(=O)CC2)c1C
3%	O=C(N1CCCC1)C(F)(F)Oc1ccc(F)cc1
20%	CCOc1ccc(C(Nc2ccc(C)cc2)P2(=O)OCCCO2)cc1 (stereo unspecified)
-1%	COc1ccc2c(c1OC)c(=O)n1c3ccc(OC(C)C(=O)NCCCN4CCOCC4)cc3c3ccnc2c31 (stereo unspecified)
3%	COc1nc(OCC#N)nc(N2CCCCC2)n1
12%	Cc1cc(C)nc(NC(=O)c2ccc(Cl)c([N+](=O)[O-])c2)n1
6%	Cc1oc2c(O)c(O)ccc2c(=O)c1-c1ccccc1
6%	O=C(Nc1cccc(S(=O)(=O)c2cccc(NC(=O)C3CC3)c2)c1)C1CC1

# The listing continues:
VDR inhibitor	mol
7%	Cc1ccc(-n2c(=O)cc(N3CCN(Cc4ccccc4)CC3)[nH]c2=O)cc1
6%	COc1ccc(-c2ccc(NS(=O)(=O)c3cccc(C)c3)cc2)nn1
-2%	Cc1ccc(-n2c(Cc3ccccc3)n[nH]c2=S)cc1
-6%	Cc1ccc(C2OC(=O)C=C2c2ccccc2)cc1 (stereo unspecified)
-16%	CCOc1ccc(CCNC(=O)c2cccc(S(=O)(=O)N3CC(C)OC(C)C3)c2)cc1OCC (stereo unspecified)
-7%	Cc1cc(C)c(NC(=O)c2c[nH]c(=S)n2-c2ccc(F)cc2)c(C)c1
-14%	CCn1cc(C(=O)N2CCN(c3ccccc3F)CC2)c(=O)c2ccc(C)nc21
-26%	O=C(CSc1ncccn1)NNC(=O)c1ccccc1
?	O=C(Oc1ccc(C(=S)N2CCOCC2)cc1)c1ccccc1F
-4%	O=C(Nc1ccc(Cl)cc1F)c1ccc(-n2cncn2)cc1
7%	CCOC(=O)c1ccc(Nc2c(OCC)c(=O)c2=O)cc1
-18%	Cc1ccc(S(=O)(=O)NC2CCCCCC2)cc1
-8%	CSc1ccc(/C=C/C(=O)OCC(=O)N2CCCCCC2)cc1
6%	COc1ccc(CNS(=O)(=O)c2ccc(-n3cnnn3)c(C)c2)cc1
-1%	C=CCOn1c(=O)c(-c2ccccc2)[n+]([O-])c2ccccc21
2%	Cc1ccc(NC(=O)C2CCN(C(=O)c3ccccc3C)CC2)cc1
10%	CCc1n[nH]c(=O)n1Cn1c(CC)n[nH]c1=O
?	Nc1cccc2c1C(=O)N(C(=O)c1ccc(S(=O)(=O)N3CCCCCC3)cc1)C2=O
-29%	CC(C)(C)N=C1NN=C(c2cc3ccccc3o2)CS1
-23%	CC1CCc2c(sc(NC(=O)CN3CCN(C(=O)c4ccco4)CC3)c2C#N)C1 (stereo unspecified)

# Pulled by compound from above (5):
VDR inhibitor	mol
-6%	Cc1ccc(C2OC(=O)C=C2c2ccccc2)cc1 (stereo unspecified)
-2%	Cc1ccc(-n2c(Cc3ccccc3)n[nH]c2=S)cc1
-18%	Cc1ccc(S(=O)(=O)NC2CCCCCC2)cc1
-23%	CC1CCc2c(sc(NC(=O)CN3CCN(C(=O)c4ccco4)CC3)c2C#N)C1 (stereo unspecified)
-14%	CCn1cc(C(=O)N2CCN(c3ccccc3F)CC2)c(=O)c2ccc(C)nc21

# Later entries:
VDR inhibitor	mol
-15%	Cc1ccc(C)c(S(=O)(=O)NC(C)C(=O)Nc2ccc(-c3nc4ccccc4s3)cc2)c1 (stereo unspecified)
-2%	COc1cccc(NC(=O)CN(C)C(=O)c2ccc(-n3cncn3)c([N+](=O)[O-])c2)c1
?	O=C(/C=C/c1ccc(OCc2ccccc2)cc1)c1cccs1
0%	CC1C[N+](=C2C=C(N3CCOCC3)CC(C)(C)C2)CC(C)O1 (stereo unspecified)
0%	CS(=O)(=O)N1CCN(c2ccccc2NC(=O)c2ccc3ccccc3c2)CC1
3%	Cc1onc(-c2ccccc2)c1C(=O)N[C@@H]1C(=O)N2C1SC(C)(C)[C@@H]2C(=O)O (stereo partly specified)
3%	Cc1nc(NC(=O)c2ccncc2)sc1C(=O)N(C)C
9%	O=C(NCc1ccccn1)C1CCN(Cc2cnn(-c3ccccc3)c2-n2cccc2)CC1
2%	Cc1cccc(N(CC(N)=O)S(C)(=O)=O)c1C
-17%	CN(C)/C=N/NC(=O)c1ccccc1Cl
15%	c1cc(CNc2ccc3c(c2)OCCO3)ccn1
17%	CC(=O)C(Cc1ccccc1)(Cc1ccccc1)C(C)=O
-1%	COc1ccc(NC(=O)c2ccc(S(=O)(=O)C(F)F)cc2)c(OC)c1
12%	Cc1ccc(NC(=O)Nc2cccnc2)cc1Cl
4%	CCc1ccccc1NC(=O)c1cc(S(=O)(=O)N2CCCC2)cn1C
9%	CCN(c1ccccc1)S(=O)(=O)c1ccc(NC(=S)NC(=O)c2cccs2)cc1
1%	Cc1ccc(S(=O)(=O)N2CCC(N3CCN(Cc4ccccc4)C(=O)C3=O)CC2)cc1C
-1%	CCOc1nc(NCCc2ccc(OC)c(OC)c2)nc(N2CCN(c3ccc(OC)cc3)CC2)n1
-16%	Cc1ccc(-c2c3c(=O)n(C)c(=O)n(C)c3cn2Cc2ccccn2)cc1
-9%	Cc1ccc(C(=O)NCC(=O)OCC(=O)Nc2ccc(Cl)cn2)cc1

# In the list so far, two contain a CF3 group.
VDR inhibitor	mol
-5%	CC(=O)Nc1ccc(S(=O)(=O)NC2(C(F)(F)F)N=C(c3ccccc3)NC2=O)cc1 (stereo unspecified)
-8%	CCOC(=O)c1csc(-n2nc(C)cc2C(F)(F)F)n1

# More compounds
VDR inhibitor	mol
-4%	Cc1ccc(OCC(=O)Nc2ccc(N3CCN(C(=O)c4ccco4)CC3)cc2)c(C)c1
-15%	CCN(C(=O)CSc1nnc(-c2ccccc2Cl)n1N)c1c(N)n(Cc2ccccc2)c(=O)[nH]c1=O
-23%	Cc1ccnc(SCCn2c(N3CCN(Cc4ccccc4)CC3)nc3c2c(=O)[nH]c(=O)n3C)n1
11%	Cc1ccc(N(CC(=O)NCc2ccco2)C(=O)CNS(=O)(=O)c2ccccc2)c(C)c1
-6%	CCOc1ccc(C(=O)NCc2ccco2)cc1Cl
16%	COc1cccc(SCc2noc(C(=O)NCC3CC3)c2C(=O)NCC2CC2)c1
-2%	CCCc1nc2c(s1)CCc1onc(-c3cccc([N+](=O)[O-])c3)c1-2
11%	CCN(CC)c1ccc(C(=O)OCC(=O)NCC2CCCO2)cc1 (stereo unspecified)
-15%	COC(=O)/C=C1\N/C(=N\c2nc(C)cc(C)n2)N(c2ccc(C)cc2)C1=O
-9%	COc1ccccc1CNC(=O)CCNC(=O)C1CCN(S(=O)(=O)c2ccccc2)CC1
-14%	CCC(=O)C(C#N)(c1ccc(OC)c(OC)c1)C(C)C (stereo unspecified)
1%	O=C(c1ccco1)N1CCN(c2cc(C(F)(F)F)nc3ncnn23)CC1
4%	COc1ccc(-c2cc(=O)oc3cc(OC(C)C(=O)O)ccc23)cc1 (stereo unspecified)
-6%	Cc1cccc(NC(=O)Cn2c(C(F)(F)F)nc3ccccc32)c1C
-18%	O=C(O)C(O)Cc1c[nH]c2ccccc12 (stereo unspecified)
4%	CCCc1nnc(NC(=O)CCCC(=O)O)s1
9%	COc1ccc(/C=C/C(=O)c2ccc[nH]2)c(OC)c1OC
-23%	COc1ccc(C2/C(=C(/O)c3ccc(C)cc3)C(=O)C(=O)N2CC2CCCO2)cc1OC (stereo unspecified)
-6%	CCn1c(=O)c2sccc2n2c(CCCC(=O)N3CCN(c4cccc(Cl)c4)CC3)nnc12
?	Cc1ccc2c(c1)NC(=O)C(CC(=O)NCCCN1CCCC1=O)O2 (stereo unspecified)

# The list goes on:
VDR inhibitor	mol
-4%	CCCCn1c(N)c(N(Cc2ccccc2OC)C(=O)C(C)Oc2ccc(F)cc2)c(=O)[nH]c1=O (stereo unspecified)
6%	O=C(CCn1nnc2ccccc2c1=O)N[C@@H](Cc1ccccc1)C(=O)O
0%	COc1ccccc1/C=N/NC(=O)c1csc(C)c1C
-12%	c1ccc(C2=Nn3c(nnc3-c3ccncc3)SC2)cc1
-1%	Cc1cc(C)c2c(NC(=S)NC(=O)c3ccccc3)nn(C)c2n1
4%	COc1cccc(-c2nc(CS(=O)(=O)CC(=O)NCCCN3CCc4ccccc4C3)c(C)o2)c1
12%	COc1ccc(N2C(=O)CC(N3CCCC4CCCCC43)C2=O)cc1 (stereo unspecified)
13%	COc1cc(CN(C(=O)COc2ccc(C)cc2)c2ccccn2)cc(OC)c1OC
-18%	O=C(Nc1ncccc1Cl)c1ccc2c(c1)OCCO2
-23%	CC1CN(C(=O)Nc2ccccc2)c2ccccc2-[n+]2ccsc21 (stereo unspecified)
0%	CN(C)S(=O)(=O)c1ccc2c(c1)N(CC(=O)NCc1ccc(F)cc1)C(=O)CS2
-9%	CCOC(=O)/C(C#N)=C/c1c(Oc2cccc(C)c2)nc2c(C)cccn2c1=O
2%	COc1ccc(CN(C)S(=O)(=O)c2nnc(NC(=O)c3cccc(F)c3)s2)cc1
-7%	CCOc1ccc(NC(=O)Cn2c(=O)n(CCCC(=O)NCc3ccc4c(c3)OCO4)c(=O)c3ccccc32)cc1
?	COc1ccc(C(=O)c2coc3c2C(=O)C(=O)c2ccccc2-3)cc1
-3%	CC(=O)Nc1ccc(NC(=O)CSc2nccn2Cc2ccco2)cc1
1%	COCc1nc(-c2ccc(-c3ccccc3)nc2OC)no1
2%	CCOC(=O)c1c(-c2ccccc2)oc2ccc(NS(=O)(=O)c3ccc(C(C)C)cc3)cc12
10%	CC(NC(=S)Nc1ccc(OC(F)F)cc1)c1ccc(F)cc1 (stereo unspecified)
19%	Clc1ccc(Cn2cc(/C=N/n3cnnc3)c3ccccc32)cc1

# Next results.
VDR inhibitor	mol
-10%	CC1=CC(C)(C)N2C(=O)C3(SCC(=O)N3c3ccc(F)cc3)c3cc(C)cc1c32 (stereo unspecified)
-2%	COc1ncc2ncc(=O)n(C3CC3)c2n1
-4%	O=C(NCc1ccccc1)c1ccc(Br)cc1Br
14%	Cc1ccc(/C=C/C(=O)Nc2cc(S(=O)(=O)N3CCCCCC3)ccc2OCC(F)(F)F)o1
1%	CN(CC(=O)Nc1ccccc1F)S(=O)(=O)c1ccc2c(c1)n(C)c(=O)c(=O)n2C
-28%	COc1cc(NC(=O)Cn2ncc3c(=O)oc4ccccc4c32)cc(OC)c1OC
-25%	CC(=O)N1CCc2cc(N=NC3=C(O)CCCC3=O)ccc21

# High-throughput results: PubChem BioAssay, National Center for Advancing Translational Sciences (NCATS)
